Source: PubChem BioAssay
Vaccinia Venus: inhibitors of vaccinia virus (Venus reporter); Vaccinia virus Venus reporter expression, fluorescence; Potency, µM (doses to about 36.5 µM), inactives show top-dose activity change, negative = inhibition, actives largely listed as inhibitors; 330,000 compounds, 0.46% hits; AID 720580; active means well fitted inhibition curve with a large enough effect; inconclusive means small, poorly fitted or top-dose-only effect; inactive means no such curve, though single readings can be large or run the other way; tested in A549 cells; also: nearly all actives have a fitted effect of over 30% in size; inactives centre near -10
VACV mCherry inh: vaccinia inhibition (mCherry reporter) | Potency, µM (titrated, usually from 36.5 µM), for the others: at the highest dose activity change, negative = inhibition, most hits filed as inhibitors | AID 720579 | 310,000 compounds, 0.63% hits | Vaccinia virus mCherry reporter infection, fluorescence; about a quarter of the inactives have no number; active = well fitted inhibition curve with a large enough effect; inconclusive = small, poorly fitted or top-dose-only effect; inactive = no such curve, though single readings can be large or run the other way; tested in A549 cells; also: nearly all actives have a fitted effect of over 35% in size; inactives centre near -10
* hit, by the source's call; i = inactive; ? = inconclusive; . = not tested or not shown; & = joins results of further samples; [ ] = remark or other dose. % is scaled to controls: 0 for no effect and ±100 for the full control effect; potency is read from the fitted curve at half-maximal effect.

SMILES	Vaccinia Venus	VACV mCherry inh
CCN(c1ccccc1)S(=O)(=O)c1ccc(Cl)c(NC(=O)CSc2nncs2)c1	-18%	-15%
C=C(C)Cn1c(N2CCN(c3ccc(OC)cc3)CC2)nc2c1c(=O)n(C)c(=O)n2C	-22%	-14%
CC(=O)Nc1ccc(NC(=O)C2CCCN(S(=O)(=O)c3ccc(-n4cnnn4)cc3)C2)cc1 (configuration not stated)	-6%	i
O=C(c1ccoc1)N1CCC2(CC1)Oc1ccc(Cl)cc1C(=O)C21CC(c2ccccc2)=NO1 (configuration not stated)	-21%	i
O=C1CCC(OCc2ccccc2)CCN1CC[C@@H](Sc1ccccc1)c1ccccc1 (some centres not stated)	-6%	-5%
Cc1nc(C(=O)Nc2ccccc2)sc1C1(C)CC(c2cccnc2)=NO1 (configuration not stated)	-10%	-8%
Nc1cccc(C(=O)NCCNC(=O)c2cccc(N)c2)c1	-7%	i
O=C(CSc1nnc(-c2c[nH]c3ccccc23)o1)N1CCCCC1	-9%	i
COc1ccc(-n2nc(C(=O)Nc3ccc(Cl)cn3)c3c4ccccc4n(C)c3c2=O)cc1Cl	-2%	-3%
COC(=O)c1ccc(C(=O)OC)c(NC(=O)c2c(-c3ccccc3)c(-c3ccccc3)nn(C)c2=O)c1	-26%	-21%
Cc1c([N+](=O)[O-])c([N+](=O)[O-])nn1CC(=O)NCc1cccnc1	-3%	-6%
CN1C(=O)NC(NC(=O)C2CCCCC2)(C(F)(F)F)C1=O (configuration not stated)	14%	17%
Fc1ccccc1N1CCN(CCCNc2ccc3nncn3n2)CC1	-2%	-2%
Cc1ccc(C2N(c3ccc(F)cc3)C(=O)C3CCCN32)cc1 (configuration not stated)	2%	-2%
O=C(O)c1cc(-c2ccc(Cl)cc2)n(-c2ccccc2)n1	-2%	i
Nc1cccc(C(=O)Nc2ccc(N)cc2Cl)c1	-13%	-3%
Cc1ccccc1Cn1nnc2sc3c(c2c1=O)CCCC3	-12%[7.34 µM]	-12%[7.34 µM]
CCN(CC)P(=O)(Nc1ccccc1Br)c1ccc(N(C)C)cc1NC(=O)c1ccco1 (configuration not stated)	-2%	-11%
CCOC(=O)N1CCc2c(sc(NC(=O)CN3CCOCC3)c2C#N)C1	-6%	-3%
COc1ccc(C(=O)C2CCCN(C(=O)c3noc4c3CCCC4)C2)c(C)c1 (configuration not stated)	-9%	?
O=C(c1ccc(Cl)nc1)c1cccs1	-1%	-14%
COc1ccc(-c2nc(CS(=O)(=O)CC(=O)NCc3ccccc3Br)c(C)o2)cc1	-15%&-9%	-11%
CC(C)(C)NC(=O)C(c1ccccn1)N(C(=O)c1csnn1)C1CCCC1 (configuration not stated)	13%	i
CCC(C)NS(=O)(=O)c1ccc(NC(=O)C(Sc2ccccc2)c2ccccc2)cc1 (configuration not stated)	?	?
CC(C)(C)c1cc(CN2CCOCC2)c(C(=O)O)o1	-10%	-10%
Cc1cc(C)cc(S(=O)(=O)Cc2noc(C(=O)NCc3ccccc3)c2C(=O)NCc2ccccc2)c1	-22%	-18%
Cc1ccn2c(Cc3ccccc3)c(-c3ccc(Br)cc3)nc2c1	-19%	-15%
CCN(CC)S(=O)(=O)c1ccc2c(c1)c(=O)c(C(=O)N1CCN(c3cccc(C)c3)C(C)C1)cn2C (configuration not stated)	1%	-18%
Clc1cnc(Nc2cccnc2)c(Cl)c1	-21%	i
CC(=O)CCc1c(C)[nH]c2ccc(NC(C)=O)cc2c1=O	-12%	-13%
COc1ccc(N(CC(=O)NCCOc2ccccc2)S(=O)(=O)c2ccc(C)cc2)cc1	-28%	-29%
O=C(CCNS(=O)(=O)c1ccc(Br)s1)NCc1ccccc1	-8%	-1%
COC(=O)C1=C(c2ccccc2)c2ccccc2S(=O)(=O)N1CC(=O)Nc1ccc(F)c(F)c1	1%	-12%
COc1cc(OC)cc(C(=O)Nc2ccc(S(=O)(=O)Nc3cc(C)nc(C)n3)cc2)c1	2%	-6%
COc1cccc(-n2c(C)c3c(OC)cccc(=O)c3c2C)c1	-5%	-2%
CN(c1nc2ccccc2nc1Cl)S(=O)(=O)c1ccccc1	4%	i
Cc1ncc(S(=O)(=O)C(C)(C)C)c(N)n1	-14%	-13%
Cc1cn2c(=O)c(S(=O)(=O)NCCc3ccc(Cl)cc3)c(C)nc2s1	-8%	-9%
N#CCN1CCCC(C(N)=O)C1 (configuration not stated)	-19%	i
CN1OC[C@@H]2CN(Cc3cc(Cl)cc(Cl)c3)[C@H](c3cccc(Oc4ccccc4)c3)C[C@@H]21	-11%	i
CC(=O)C1CCC2C3CCC4CC(O)CCC4(C)C3CC(O)C12C (configuration not stated)	-10%	-14%
CC(C)OC(=O)c1ccc(NC(=O)CSc2nc(-c3cccs3)cc(C(F)(F)F)n2)cc1	-18%	-6%
Cn1cc(CN2CCC(CO)CC2)c(-c2ccc(Oc3ccccc3)cc2)n1	-11%	-17%
CC(C)(C)c1ccccc1OCCOCCN1CCCCCC1	-24%	-25%
CC(=O)Nc1ccc(OC(=O)c2cc([N+](=O)[O-])ccc2Cl)cc1	-11%	-13%
Cc1cc(=O)oc2cc(NC(=O)C3CC(=O)N(Cc4ccccc4)C3)ccc12 (configuration not stated)	-19%	-23%
CC(C)(C)OC(=O)N1CCC(c2c(C(=O)N3CCN(c4ccccc4F)CC3)cnn2C(C)(C)C)CC1	-13%	-21%
COc1ccc(C2NC3=C(CCC3)C3(C#N)C4(N=C(N)C23C#N)OCCO4)cc1 (configuration not stated)	-1%	.
O=C(CSc1ncccn1)Nc1ccc(N2CCOCC2)cc1	4%	.
CC(C)[C@@H]1CC2=C(C(=O)OC(C)(C)O2)[C@H](CCc2ccccc2)O1	9%	-17%
CCOc1ccc(OCCC(=O)NNC(=O)c2nn(C)c(=O)c3ccccc23)cc1	-12%	i
S=C(NCCc1ccccc1)Nc1ccc(Cl)cc1	-26%	-30%
CC1(c2ccccc2)NC(=O)N(CC(=O)Nc2ccc(Cl)c(S(=O)(=O)N3CCCCC3)c2)C1=O (configuration not stated)	?	-15%
CCc1ccccc1NC(=O)c1cc(S(=O)(=O)NCCc2ccc(OC)c(OC)c2)ccc1F	-7%	-11%
O=C(CNC(=O)c1ccccc1F)OCc1nc2ccccc2s1	-1%	-15%
Cc1ncoc1C(=O)N1CCCC(N2CCN(c3ccccc3F)CC2)C1 (configuration not stated)	-12%	-14%
CCCCN(C=O)c1c(CC)nc2ccc(C(=O)N3CCN(C)CC3)cn12	5%	24%
COC(=O)Cn1cnc2scc(-c3ccc(C)c(C)c3)c2c1=O	-7%	i
Cc1csc(NC(=O)CCNC(=O)c2ccccc2Cl)n1	-6%	-6%
Cn1c(=O)oc2cc(S(=O)(=O)N3CCC(C(=O)NCc4ccccc4Cl)CC3)ccc21	-10%	-3%

The list continues:
SMILES	Vaccinia Venus	VACV mCherry inh
Cc1cc(C)cc(NC(=O)C2CCCN(c3nnc(C)c4c(C)n(-c5ccccc5)nc34)C2)c1 (configuration not stated)	-22%	-22%
COc1ccc(N2C(=O)c3ccccc3NC2c2ccc(OC)c(CSc3ccccn3)c2)cc1 (configuration not stated)	-10%	-7%
COc1c([N+](=O)[O-])cc(C(=O)NNC(=O)c2ccc(C)cc2)cc1[N+](=O)[O-]	-6%	-6%
Cc1ccc(NC(=O)COC(=O)CN2CCSC2=O)cc1Cl	-8%	-5%
CC1(C)CC2CC(C)(CN2C(=O)c2cc(-c3ccccc3O)on2)C1 (configuration not stated)	-17%	-17%
CCOC(=O)CN1C(=O)C2(C(C#N)=C(N)Oc3ccccc32)C(C(=O)OC)=C1C (configuration not stated)	-21%	.
COc1cc2c(=O)n(Cc3ccccc3Cl)c(=O)n(CC(=O)Nc3ccc(C)c(C)c3)c2cc1OC	-14%	-20%
O=C(c1ccccc1OCc1ccc(Cl)cc1)N1CCN(c2ccccn2)CC1	-19%	-6%
COC(=O)CSc1n[nH]c(-c2ccncc2)n1	-4%	-5%
CCCc1nc(SC)ncc1C(=O)Nc1ccc(Cl)cc1C(=O)c1ccccc1	10%	7%
CN(CC(=O)Nc1ccc2c(c1)OCCO2)S(=O)(=O)c1cccc2cccnc12	-2%	i
O=S1(=O)[C@H]2C[C@@H]3C=C[C@@]2(CN1Cc1ccccc1F)O3	-28%	?

Single records, as listed above.
COc1ccc(C(=O)C2CCCN(C(=O)c3noc4c3CCCC4)C2)c(C)c1 (configuration not stated) as listed: Vaccinia Venus: -9%; VACV mCherry inh: ?
CCOc1ccc(OCCC(=O)NNC(=O)c2nn(C)c(=O)c3ccccc23)cc1 as listed: Vaccinia Venus: -12%; VACV mCherry inh: i

(listing goes on)
SMILES	Vaccinia Venus	VACV mCherry inh
O=C(O)CCC(=O)N1CCN(c2ncccn2)CC1	-3%	i
Cc1ccc([C@H]2C[C@H](O)[C@@H](n3cc(C4CC4)nn3)CN2Cc2cccs2)cc1	11µM*	?
Cc1ccc(S(=O)(=O)Nc2nc3ccccc3nc2N2CCN(c3ccccc3F)CC2)cc1	-12%	.
COc1cc(CN2C(=O)C(C)ON=C2c2cccs2)cc(OC)c1 (configuration not stated)	3%	30%[activator]
CCCCCCn1c(N)c(C#N)c2ccc([N+](=O)[O-])cc2c1=O	0%	-14%
O=C(CNC(=O)c1cccc(S(=O)(=O)N2CCc3ccccc32)c1)Nc1ccc(F)c(F)c1F	-7%	?
COCCn1c(COc2ccc(OC)cc2)nc2ccccc21	-5%	-6%
COc1ccc(-c2cnc(SCC(=O)Nc3cc(C)on3)n2Cc2ccco2)cc1	-9%	-15%
CCCCNC(=O)C(=O)Nc1ccc2c(c1)N(S(=O)(=O)c1cccs1)CCC2	?	-18%
CC(Oc1ccc(F)cc1)C(=O)N1CCC(c2nc3ccccc3s2)CC1 (configuration not stated)	?	-7%
CCn1cc(S(=O)(=O)c2cccc(Cl)c2)c(=O)c2cc(F)c(N3CCN(c4ccccc4)CC3)cc21	-13%	-1%
CCC(C(=O)OCc1cc(=O)n2nc(CCOC)sc2n1)c1ccccc1 (configuration not stated)	-4%	i

By substructure, the compounds so far with a nitro group on carbon
SMILES	Vaccinia Venus	VACV mCherry inh
Cc1c([N+](=O)[O-])c([N+](=O)[O-])nn1CC(=O)NCc1cccnc1	-3%	-6%
CC(=O)Nc1ccc(OC(=O)c2cc([N+](=O)[O-])ccc2Cl)cc1	-11%	-13%
COc1c([N+](=O)[O-])cc(C(=O)NNC(=O)c2ccc(C)cc2)cc1[N+](=O)[O-]	-6%	-6%
CCCCCCn1c(N)c(C#N)c2ccc([N+](=O)[O-])cc2c1=O	0%	-14%

Going on with the list.
SMILES	Vaccinia Venus	VACV mCherry inh
N#Cc1ccccc1CSc1ncccc1C(=O)O	-1%	i
O=C(O)Cn1c(SC2CCCCC2)nc2ccccc21	-3%	-11%
COc1ccccc1Nc1ncnc2c1c(C)c(C)n2CCO	-17%	i
CCOC(=O)c1c(C)[nH]c(C)c1S(=O)(=O)N1CCCC(C(=O)NCc2cccc(OC)c2)C1 (configuration not stated)	2%	-2%
Cc1cc2occ(CC(=O)N(C)CC(=O)Nc3ccccc3Cl)c2cc1C	-15%	i
Cc1cc(F)ccc1NC(=O)CCS(=O)(=O)c1ccc2c(c1)NC(=O)CO2	2%	3%
COc1cc([N+](=O)[O-])ccc1NC(=O)/C=C/C(=O)O	-6%	-6%
C1CCN(c2nc(N3CCCCC3)nc(N3CCNCC3)n2)CC1	-12%	.
Cc1ccc(C(=O)O)cc1[N+](=O)[O-]	0%	i
CS(=O)(=O)N1CCCC(C(=O)NCCc2ccc(Cl)cc2)C1 (configuration not stated)	-14%	-15%
CCC(C)N1CCN(C(=O)Cc2ccccc2)CC1 (configuration not stated)	5%	i
CC(C)(C)n1nnnc1C(c1ccccc1)N1CCN(C/C=C/c2ccccc2)CC1 (configuration not stated)	-5%	i
O=C(O)c1cccc(NC(=S)N/N=C/c2ccccc2OCc2cccc(Br)c2)c1	-2%	-11%
CCOC(=O)N1CCc2c(sc(NCc3ccc(OCC)cc3)c2C(=O)Nc2ccc(OC)cc2OC)C1	-9%	-14%
COc1ccc(C(=O)[C@H]2[C@H]3C(=O)N(c4ccc(OC(C)=O)cc4)C(=O)[C@H]3C3C=CC=NN32)cc1 (some centres not stated)	6%	-29%
CC/C(C)=N/Nc1nc2c(c(=O)[nH]c(=O)n2C)n1Cc1ccccc1	-10%	-17%
Cc1cc(S(=O)(=O)NCc2ccccc2)ccc1OCC(=O)NCc1cccnc1	0%	-11%
Cn1c(NCCc2ccncc2)nc2cc(-c3ccccc3)sc2c1=O	?	-1%
Nc1nc(NCCCN2CCOCC2)nc(Nc2ccc(F)cc2)c1[N+](=O)[O-]	-17%	-28%
C(=NN=Cc1c[nH]c2ccccc12)c1c[nH]c2ccccc12	-12%	-4%
O=[N+]([O-])c1ccc(S(=O)(=O)NCC2CCCO2)cc1 (configuration not stated)	-1%	-7%
O=C(CC1C(=O)NC2CCCCC2N1C(=O)c1ccc(F)cc1)Nc1ccccc1 (configuration not stated)	-9%	?
NC(=O)CSc1n[nH]c(-c2ccco2)n1	0%	-27%

Reformatted: two of the compounds above
SMILES: Nc1nc(NCCCN2CCOCC2)nc(Nc2ccc(F)cc2)c1[N+](=O)[O-]
  Vaccinia Venus: -17%; VACV mCherry inh: -28%
SMILES: C(=NN=Cc1c[nH]c2ccccc12)c1c[nH]c2ccccc12
  Vaccinia Venus: -12%; VACV mCherry inh: -4%

A few values from the results shown.
`Cc1cc2occ(CC(=O)N(C)CC(=O)Nc3ccccc3Cl)c2cc1C` – Vaccinia Venus: -15%
`O=C(O)c1cccc(NC(=S)N/N=C/c2ccccc2OCc2cccc(Br)c2)c1` – VACV mCherry inh: -11%
`Cc1ncc(S(=O)(=O)C(C)(C)C)c(N)n1` – VACV mCherry inh: -13%
`COC(=O)Cn1cnc2scc(-c3ccc(C)c(C)c3)c2c1=O` – Vaccinia Venus: -7%
